Menin MLL FP FL: menin-MLL binding inhibition, fluorescein peptide; Fluorescence polarization, fluorescein-MLL peptide displacement from menin; FP activity change, % at 61.4 µM; 290,000 tested, under 10 active; AID 1766; inconclusive = falling polarisation curve, or a change in total fluorescence; inactive = total fluorescence flat and polarisation flat or rising; no compound was filed as active; the % refers to the polarisation; negative = inhibition;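 also: % of control where 0% means no effect; inhibitors lower the polarisation; unlabelled MLL peptide was the positive control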
ClpP mod: qHTS Assay for Activators of ClpP; ATP-dependent Clp protease proteolytic subunit (Bacillus subtilis (strain 168)), P80244; purified B. subtilis ClpP, FRET peptide cleavage, 20 min; Potency, µM (titrated, usually from 57.5 µM), for inactives: at the top dose activity change, negative = active; hit rate 1.9% among 340,000; AID 651965, 2013; active = well fitted falling curve with a large enough effect; inconclusive = small, poorly fitted or top-dose-only effect; inactive = no such curve, though single readings can be large or run the other way; also: potency is read from the fitted curve at half-maximal effect; the source files actives as falling curves though it sought activators and does not explain the sign; nearly all actives have a fitted effect of over 65% in size; many hits overshoot -100%
Target sequence (P80244 whole entry, looked up): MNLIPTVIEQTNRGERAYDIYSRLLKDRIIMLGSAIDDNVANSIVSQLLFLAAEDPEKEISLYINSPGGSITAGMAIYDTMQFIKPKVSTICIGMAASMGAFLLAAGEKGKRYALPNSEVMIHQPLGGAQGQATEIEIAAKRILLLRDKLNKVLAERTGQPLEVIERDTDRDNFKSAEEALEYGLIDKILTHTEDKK
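FRET quenching reversal measured ClpP activation: 10 microg/mL B. subtilis ClpP at pH 8 with the FRET-FV decapeptide, read at 430 nm after 320 nm excitation. The 20-min minus 0-min signal was scaled between DMSO/no-enzyme wells and ADEP (5.8 microM final).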
gsp antagonist: antagonizes gsp, the McCune-Albright syndrome mutation | gsp-mutant cells, cAMP HTRF, 30 min; control for the full effect not named in the record | Potency, µM (doses to about 76.9 µM), without a hit: top-dose activity change, negative = inhibition, most hits filed as inhibitors | hit rate 0.4% among 340,000; active = falling curve of any shape with a large fitted effect; inconclusive = falling curve, mostly with a smaller effect; inactive = flat or rising curve; cell line not stated here;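 also: intracellular cAMP measured with PDE inhibitor Ro 20-1724 present during compound exposure; potency is read from the fitted curve at half-maximal effect; % is scaled to controls: 0 for no effect and ±100 for the full control effect; nearly all actives have a fitted effect of over 65% in size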
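Measurement of cellular cAMP by homogeneous time-resolved fluorescence following a 30 min compound exposure at 37C. The PDE inhibitor […] was present throughout; the assay buffer was DPBS with 0.05% BSA and 0.005% Tween 20.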
Sfp inh: inhibitors of Bacillus subtilis Sfp phosphopantetheinyl transferase; Q9F4F7; Biochemical Sfp PPTase activity, qHTS; Potency, µM, for the others: max response, negative = inhibition, usual class: inhibitors; hit rate 3.5% among 310,000; AID 1490; active = well fitted inhibition curve with a large enough effect; inconclusive = small, poorly fitted or top-dose-only effect, or another doubt; inactive = no such curve, though single readings can be large or run the other way;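 also: the enzyme is Sfp with the accession as filed and its product quenches rhodamine fluorescence; potency is read from the fitted curve at half-maximal effect; 0% = enzyme reaction without inhibitor and -100% = no enzyme wells; top concentration of the series not given in the record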
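Step 1, compound plus 15 nM Sfp-PPTase, 15 min, room temperature. Step 2, add rhodamine-CoA (5 uM) and BHQ-2-YbbR (12.5 uM). Step 3, read 525/598 nm fluorescence at 0 and 30 min.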
PINK1 expr mod: changes PINK1 expression; hit rate 0.2% among 410,000; Potency, µM (doses to about 76.6 µM), without a hit: top-dose activation (PINK1 increase), usual class: activators; PINK1 immunofluorescence, high-content cytometry, 24 h; active = well fitted activation curve with a large enough effect; inconclusive = small, poorly fitted or top-dose-only effect; inactive = flat fitted curve, though single readings scatter; cell line not stated here;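 also: potency is read from the fitted curve at half-maximal effect; % of control where 0% means no effect; nearly all actives have a fitted effect of over 65% in size; a mitochondrial uncoupler was the plate control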
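Compound titrations (5 concentrations, 24 h) on a stable cell line; DMSO and CCCP controls. Endpoint: fixed-cell PINK1 immunofluorescence with mitochondrial, cell and nuclear markers, scanned by microplate cytometer.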
gsp agonist: activates gsp, the McCune-Albright syndrome mutation | gsp mutant cells, cAMP HTRF, 30 min; control for the full effect not named in the record | hit rate 0.13% among 340,000 | Potency, µM (highest dose often 76.9 µM), for the others: at the top dose activation (cAMP increase), usual class: activators; active = well fitted activation curve with a large enough effect; inconclusive = small, poorly fitted or top-dose-only effect, or another doubt; inactive = no such curve, though single readings can be large or run the other way; cell line not stated here;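 also: phosphodiesterase inhibitor Ro 20-1724 added with compounds to block cAMP breakdown; potency is read from the fitted curve at half-maximal effect; nearly all actives have a fitted effect of over 60% in size; about a fifth of the inactives were tested at one dose only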
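Cells stably selected in G418 were plated at 2000/well, grown 16-24 hr, then given compounds in DMSO with the PDE inhibitor […] (300 uM solution added) for 30 min at 37C; cAMP was read by HTRF.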
D2 agonist: agonists of human D2 dopamine receptor (beta-arrestin). DiscoveRx PathHunter D2 beta-arrestin, luminescence, 90 min; 100% = 57 uM dopamine signal. AID 624465. hit rate 0.084% among 360,000. P14416. activation, % (test concentration not listed); in the data active = activation above about 40%; inconclusive = about 15% to 40%; inactive = below about 15%; also: compound concentration not given in the record; the text of the record calls up to 30% inactive
Target sequence (P14416 whole entry, looked up): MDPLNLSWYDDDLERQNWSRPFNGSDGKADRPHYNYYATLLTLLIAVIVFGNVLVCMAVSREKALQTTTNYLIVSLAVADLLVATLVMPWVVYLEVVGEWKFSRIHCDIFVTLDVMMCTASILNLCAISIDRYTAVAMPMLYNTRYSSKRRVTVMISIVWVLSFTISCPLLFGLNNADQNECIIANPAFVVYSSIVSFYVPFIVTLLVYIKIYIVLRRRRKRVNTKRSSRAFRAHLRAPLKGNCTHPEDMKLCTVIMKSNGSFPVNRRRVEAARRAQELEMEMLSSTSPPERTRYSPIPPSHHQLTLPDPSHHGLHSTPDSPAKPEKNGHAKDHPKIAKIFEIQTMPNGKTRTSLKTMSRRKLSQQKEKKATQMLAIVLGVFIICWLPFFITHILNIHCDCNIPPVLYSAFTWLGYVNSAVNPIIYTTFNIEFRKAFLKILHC
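Agonist mode: compounds alone added to overnight-plated D2 PathHunter cells for 90 min at 37 C, with 57 uM final dopamine (EC100) defining full response. Beta-arrestin recruitment detected by chemiluminescent reagent, read after 1 h at ambient temperature.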
An asterisk follows results filed as active; u = inconclusive; x = not tested or not shown; [ ] = another dose, or the depositor's remark.

SMILES	Menin MLL FP FL	ClpP mod	gsp antagonist	Sfp inh	PINK1 expr mod	gsp agonist	D2 agonist
CN(C)c1ccc(P(=O)(OCc2ccccc2)C(O)c2ccc(Cl)cc2)cc1 (configuration not stated)	1.5	0.2%	9%	7%	0.9%	4%[15.4 µM]	-2.3
COc1ccc(C2c3ccc(O)cc3Oc3ncn(CC(C)C)c(=N)c32)cc1 (configuration not stated)	5.3	x	-3%	-7%	2.5%	8%[15.4 µM]	-0.6
Cc1cccc(NC(=O)NC(C)C(c2ccccc2)N2CCN(C)CC2)c1 (configuration not stated)	-0.1	-0.4%	6%	-4%	0.7%	-2%[15.4 µM]	-5.4
COC(=O)c1ccc(NC(=O)c2nc(S(=O)(=O)Cc3cccc(C)c3)ncc2Cl)cc1	0.5	x	-14%	u	-2.0%	9%[15.4 µM]	-5.7
O=[N+]([O-])c1cccc(Oc2cnccn2)c1	-2.9	x	3%	15%	2.7%	11%	-0.2
CC(C)c1ccc(/C=N/NC(=O)CC(=O)NC2CCCCC2)cc1	0.6	x	-4%	9%	5.4%	-4%[15.4 µM]	0.1
CCn1c(N2CCN(C(=S)NC)CC2)nc2ccccc21	4.5	-0.8%	6%	-3%	1.2%[38.3 µM]	-18%	-2.7
CC(=O)Nc1cc2c(ccc3ccccc32)oc1=O	-1.0	x	7%	11%	-1.5%	-1%[15.4 µM]	-1.2
COc1ccc(S(=O)(=O)N2CCCC2CNC(=O)C(=O)NC2CC2)cc1 (configuration not stated)	x	-0.7%	-5%	x	-0.9%	21%[15.4 µM]	3.1
CC(C)(C)NC(=O)Cn1c(Cl)nc2ccccc21	1.2	-0.4%	7%	23%	-0.1%	-30%	3.0
Cc1ccc2oc(=O)c3cnn(CC(=O)NCCN4CCOCC4)c3c2c1	-0.6	-0.4%	1%	1%	1.2%	22%	-3.5
CC1CC(C)CN(S(=O)(=O)c2ccc3oc(=O)ccc3c2)C1 (configuration not stated)	x	-0.2%	-6%	12%	-0.3%	-7%	-2.5
COc1ccc(-n2nnnc2SCC(=O)NNC(=O)c2ccc([N+](=O)[O-])cc2)cc1	7.9	-2.5%	-5%	2%	0.9%	2%	0.7
CCN(C(=O)CSc1nnc(-c2cccc(Cl)c2)n1N)c1c(N)n(Cc2ccccc2)c(=O)[nH]c1=O	x	-2.1%	5%	x	-1.0%	-10%	-3.0
CC(CC(=O)c1ccc(F)cc1)N1CCN(c2ccccc2)CC1 (configuration not stated)	x	0.4%	8%	x	-0.1%	24%	4.4
O=S(=O)(c1ccc(-c2csc(-c3cccnc3)n2)cc1)N1CCCCC1	0.4	-16%	-5%	-14%	4.8%	2%	3.8
CCOC(=O)c1c(C)c(C(=O)NC(C)COC)c(C)n1C (configuration not stated)	-1.2	-0.8%	8%	22%	22%[38.3 µM]	38%	-2.6
COc1ccc(-c2c(=O)n(OCc3ccccn3)c3ccccc3[n+]2[O-])cc1OC	2.3	-1.5%	-14%	-4%	-1.8%	u	-0.8
CN1c2ccccc2C2(C)CCCC3=Cc4cc([N+](=O)[O-])cc([N+](=O)[O-])c4OC312 (configuration not stated)	4.9	-1.1%	2%	-1%	1.2%	-3%	-2.4
CN(C)c1cc(-c2ccc(Cl)cc2Cl)oc(=O)c1Cl	10	14%	-26%	u	1.1%	0%	-0.7
Cc1nc2ncnn2c(C)c1CCC(=O)Nc1csc(N)n1	1.9	-0.8%	7%	10%	0.0%[38.3 µM]	21%	-2.2
CCOC(=O)c1ccc(NC(=O)Nc2ccc(S(N)(=O)=O)cc2)cc1	-2.8	-0.5%	1%	5%	4.8%[38.3 µM]	11%	-1.9
COc1cccc(NC(=S)N2CCc3cc(OC)c(OC)cc3C2COc2ccc3c(C)cc(=O)oc3c2)c1 (configuration not stated)	-0.6	u	-4%	2%	0.5%	-17%	-3.1
CCOc1ccc(C2CC(=O)NC(SC)=C2C#N)cc1 (configuration not stated)	-0.8	0.5%	-4%	4%	1.8%	-31%[inhibitor]	-7.9
O=S(=O)(Cc1cccc(F)c1)c1c[nH]c2ccccc12	2.3	-6.7%	6%	15%	0.2%	-46%[inhibitor]	-2.6

Further records:
SMILES	Menin MLL FP FL	ClpP mod	gsp antagonist	Sfp inh	PINK1 expr mod	gsp agonist	D2 agonist
CCSc1nc(C)c(C(C)=O)cc1C#N	-2.7	0.3%	7%	9%	2.3%	0%	0.3
C=CCOC(=O)C1=C(C)NC(SCC(N)=O)=C(C#N)C1c1ccc(C)cc1 (configuration not stated)	4.9	-14%	-15%	20%	1.3%	7%	-2.9
CC(=O)N1CCN(C(=O)c2cc(S(=O)(=O)Nc3ccc(S(C)(=O)=O)cc3)ccc2Cl)CC1	8.9	-1.3%	4%	0%	0.1%	-1%[15.4 µM]	-4.9
COc1ccc(/C(N)=N/OC(=O)c2ccc(C)c([N+](=O)[O-])c2)cc1OC	0.6	-0.4%	4%	14%	8.0%	u	-0.5
Cc1onc(-c2ccccc2Cl)c1C(=O)N1CCN(c2ncccn2)CC1	0.5	-17%	3%	7%	2.6%	11%	-6.4
O=C(Oc1cccc(NC(=O)c2ccco2)c1)c1ccc(Br)c(S(=O)(=O)N2CCCCC2)c1	5.5	-3.8%	-3%	2%	-0.8%	-28%	0.4
COC(=O)c1ccc(NCc2c(O)ccc(O)c2Br)cc1Cl	x	1.4%	0%	x	24%	5%	u
Cc1ccc(-c2csc(C3C(N)=NC(S)=C(C#N)C34CCCCC4)n2)cc1 (configuration not stated)	15	-0.2%	6%	8%	0.3%	-21%	3.4
COCCNc1nc2ccccc2n2cnnc12	3.6	-9.0%	9%	9%	-0.9%	14%	-0.7
O=[N+]([O-])c1cccc(-c2ccc(SCc3cccnc3)nn2)c1	-3.3	-8.9%	-7%	6%	-0.6%	-25%[15.4 µM]	3.5
COc1ccc(-n2nc3c(c2NC(=O)c2c(-c4ccccc4Cl)noc2C)CS(=O)(=O)C3)cc1	1.4	0.5%	-16%	1%	0.1%	-53%[inhibitor]	-2.2
Cc1c(C=O)c2ccccn2c1C(=O)c1ccccc1Cl	3.0	-5.5%	6%	9%	3.6%	-2%[15.4 µM]	0.3
COc1ccc(-c2ccc(C(=O)Nc3ccc(C(C)C)cc3)c3occc23)c(C)c1	x	u	x	x	3.2%	x	-4.9
Cc1cc(Br)ccc1NC(=O)CNC(=O)c1cnn(C)c1	x	-2.4%	6%	x	0.9%	-16%	-0.2
O=C(C/C=N\OCc1ccc([N+](=O)[O-])cc1)Nc1ccc(Cl)cc1	-0.7	x	-5%	-7%	2.0%	-2%[15.4 µM]	-1.3
Cc1nc(-c2ccc(-c3ccon3)s2)no1	7.8	0.0%	-4%	2%	0.3%	3%[15.4 µM]	-6.7
CC1=C(C(N)=O)C(c2cccs2)NC(=O)N1 (configuration not stated)	1.4	-1.7%	8%	13%	1.2%	5%	0.6
Cc1nnc(NC(=O)CCC2CCCCC2)s1	x	2.2%	x	x	0.0%	u	-2.7
O=C(c1cccnc1)N1CCN(Cc2cccc(Br)c2)CC1	1.1	-1.2%	5%	89µM*	-0.8%[38.3 µM]	-30%	-1.5
CCCCCCCCCc1nc2sc3c(c2c(=O)n1NC(=O)c1ccccc1[N+](=O)[O-])CC(C)(C)OC3	6.2	x	u	-1%	u	-8%[15.4 µM]	-6.0
Cc1ccccc1C(=O)N/N=C/c1ccsc1C	2.4	-0.8%	3%	2%	-2.0%	25%[15.4 µM]	-0.4
COc1ccc(NS(=O)(=O)c2ccc(C)c(C(=O)OC(C)C(=O)N3CCOCC3)c2)cc1 (configuration not stated)	x	x	-14%	x	1.3%	10%[15.4 µM]	1.1
Cc1cccc(NC(=O)c2nc[nH]c2C(=O)NCCN(CCNC(=O)c2[nH]cnc2C(=O)Nc2cccc(C)c2)CCNC(=O)c2[nH]cnc2C(=O)Nc2cccc(C)c2)c1	x	u	4%	x	0.2%	17%	-4.5
Cc1c(C(=O)O)nnn1-c1nonc1N	-7.1	x	12%	13%	1.5%	-2%[15.4 µM]	-5.4
CN(C1CCS(=O)(=O)C1)S(=O)(=O)c1cccs1 (configuration not stated)	x	x	4%	x	-1.7%	23%[15.4 µM]	-4.2

Carrying on:
SMILES	Menin MLL FP FL	ClpP mod	gsp antagonist	Sfp inh	PINK1 expr mod	gsp agonist	D2 agonist
CN(CC(=O)Nc1ccc(F)cc1)C(=O)c1cc(-c2cccs2)nn1-c1ccccc1	x	-1.6%	u	x	-1.4%	25%	-9.2
COc1nn(C(C)C(=O)N2N=C(C(F)F)CC2(O)C(F)F)cc1[N+](=O)[O-] (configuration not stated)	0.5	-1.0%	4%	3%	11%[38.3 µM]	24%	0.3
Cn1c2ccccc2c2cnn(CC(=O)Nc3ccc(Cl)cc3)c(=O)c21	2.6	-20%	2%	-1%	-0.1%	-67%[inhibitor]	-5.1
Cc1ccc(OCCN2CCC2(C)C(=O)Nc2ccc3c(c2)OCCO3)cc1 (configuration not stated)	x	0.9%	x	x	-0.7%	x	-2.6
NS(=O)(=O)c1ccc(CCNC(=O)COC(=O)CN2C(=O)C3CCCCC3C2=O)cc1 (configuration not stated)	-2.0	x	-32%	28%	0.4%	23%[15.4 µM]	1.0
CCCCOC(=O)Nc1nnc(CCOCC)s1	0.4	-1.9%	9%	22%	0.7%	-2%[15.4 µM]	-1.5
COc1ccc(-c2noc(CNC(=O)CCN3C(=O)[C@H]4CC=CC[C@H]4C3=O)n2)cc1	x	-3.2%	7%	9%	0.0%	4%	7.7
Cc1cccc(/C=N/Nc2cc(N3CCOCC3)nc(N3CCOCC3)n2)c1	6.7	-6.4%	-27%	-16%	17%	-27%	-1.7

Part of the list above, in CSV form.
compound,Menin MLL FP FL,ClpP mod,gsp antagonist,Sfp inh,PINK1 expr mod,gsp agonist,D2 agonist
NS(=O)(=O)c1ccc(CCNC(=O)COC(=O)CN2C(=O)C3CCCCC3C2=O)cc1 (configuration not stated),-2.0,x,-32%,28%,0.4%,23%[15.4 µM],1.0
CCCCOC(=O)Nc1nnc(CCOCC)s1,0.4,-1.9%,9%,22%,0.7%,-2%[15.4 µM],-1.5
COc1ccc(-c2noc(CNC(=O)CCN3C(=O)[C@H]4CC=CC[C@H]4C3=O)n2)cc1,x,-3.2%,7%,9%,0.0%,4%,7.7

Bioassay records as filed in PubChem.
